Screening results deposited in PubChem BioAssay by several laboratories.
Mtb growth – M. tuberculosis H37Rv growth inhibitors, H37Rv strain (AID 1626); M. tuberculosis H37Rv growth inhibition; higher % means a stronger effect; inhibition, % at 10 µM, or IC50 in µM where a hit was titrated; hit rate 0.95% among 220,000;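 active = confirmed in a dose series; inconclusive = inhibition above 80% but not taken into the dose series; inactive = below 80% or under 30% at every dose of the series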;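 also: bacteria incubated seven days before Alamar blue readout; 0% = bacteria only wells and 100% = bacteria with antibiotic wells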
YopH inh – YopH (Yersinia) phosphatase inhibition. fluorescence Ex485/Em525. inhibition, %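 (about 10 µM by stock and volumes)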. hit rate 0.16% among 140,000;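 active = inhibition of 50% or more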;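 also: controls were vehicle for no effect and minimum signal wells for full effect; inactives centre near -20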
Mtb bLac sens – beta-lactam sensitization of Mtb H37Rv. M. tuberculosis H37Rv growth with meropenem, percent inhibition; hits of this screen are not shown here. inhibition, % at 25 µM. hit rate 0.27% among 330,000. AID 434955;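 active = about 74% or more and at least 40 points above the plate without the antibiotic, then above 30% in a dose series; inconclusive = first-round hits that could not be retested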;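 also: growth measured after seven days incubation then overnight dye step; 0% = bacteria only wells and 100% = bacteria with antibiotic; twin plates without the antibiotic show which effects depend on it; some results filed as inactive read as strong as hits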
RecA splice inh – inhibitors of M. tuberculosis RecA intein splicing | inhibition, %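 (about 9 µM by stock and volumes)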 | hit rate 0.75% among 290,000 | cell-free RecA intein splicing, fluorescence; in the data active = inhibition above about 30%; inconclusive = no clear call, values can overlap the other calls;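 also: 0% = vehicle wells and 100% = reference inhibitor control wells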
Target sequence (P9WHJ3 whole entry, looked up, canonical isoform): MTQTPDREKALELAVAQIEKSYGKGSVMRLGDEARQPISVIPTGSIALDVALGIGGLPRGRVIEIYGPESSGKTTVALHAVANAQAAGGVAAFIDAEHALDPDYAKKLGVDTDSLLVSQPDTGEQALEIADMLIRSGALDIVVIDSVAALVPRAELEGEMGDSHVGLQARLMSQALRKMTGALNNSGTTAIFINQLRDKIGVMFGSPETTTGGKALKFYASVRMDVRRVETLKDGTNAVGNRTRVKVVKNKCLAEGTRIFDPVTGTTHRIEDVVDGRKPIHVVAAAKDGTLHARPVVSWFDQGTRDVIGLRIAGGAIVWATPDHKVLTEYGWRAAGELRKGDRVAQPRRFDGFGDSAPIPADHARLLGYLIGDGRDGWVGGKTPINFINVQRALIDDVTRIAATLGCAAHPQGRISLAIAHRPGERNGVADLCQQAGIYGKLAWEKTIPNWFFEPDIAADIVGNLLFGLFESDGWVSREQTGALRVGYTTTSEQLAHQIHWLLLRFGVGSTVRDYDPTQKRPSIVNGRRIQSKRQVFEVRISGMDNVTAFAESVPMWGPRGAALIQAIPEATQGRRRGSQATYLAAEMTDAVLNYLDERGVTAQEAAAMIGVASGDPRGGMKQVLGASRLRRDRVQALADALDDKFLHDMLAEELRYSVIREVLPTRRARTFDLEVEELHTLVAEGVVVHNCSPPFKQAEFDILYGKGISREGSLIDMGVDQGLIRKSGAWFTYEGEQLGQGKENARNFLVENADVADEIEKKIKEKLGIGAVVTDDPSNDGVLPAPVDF
Arbovirus anti – blocks arbovirus infection | arbovirus infection cell-based antiviral screen | AID 1251 | hit rate 0.37% among 200,000 | inhibition, % at 10 µM;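 active = inhibition from about 30%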;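 also: bluetongue infection of BSR cells; cell survival read as ATP light after 72 h; 0% = infected wells without compound and 100% = uninfected wells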
Arbovirus anti repeat – second read-out of Arbovirus anti, no call of its own (marks repeat the call); inhibition, %; measured here: 10K subset replicate screen; many hits read low in the repeat;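 first of two repeat runs on a subset; 0% = infected and 100% = uninfected wells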
An asterisk follows results filed as active; ? = inconclusive; / = not tested or not shown.

SMILES	Mtb growth	YopH inh	Mtb bLac sens	RecA splice inh	Arbovirus anti	others
N=c1n(CCN2CCCCC2)c2ccccc2n1CC(O)COc1ccccc1 (stereo not drawn)	-6%	1	54	0.2	-21
COc1ccc(C(=O)NC(=S)N2CCC(C)CC2)cc1Br	/	/	72	-0.1	/
COc1ccc(C(=O)c2ccccc2Cl)cc1	15%	-14	1	/	-4
CC(C)c1ncc(S(=O)(=O)c2ccc(C(F)(F)F)cn2)c(N)n1	-18%	/	-5	/	/
Cn1ncc(Cl)c1C(=O)N1CCN(S(=O)(=O)c2ccc(F)cc2)CC1	/	/	-16	0.1	/
Cc1nc(-c2ccccc2)ccc1C(=O)O	4%	/	-3	-0.4	3
COCCNC(=O)C(=O)Nc1ccc(Br)cc1	-10%	-10	-1	-0.6	-3
COc1cccc(/C=C2\Oc3cc(OCC(=O)N4Cc5ccccc5C[C@H]4C(=O)O)ccc3C2=O)c1	/	/	2	-5.1	/
CCOC(=O)c1ccc(NC(=O)NCc2cccnc2)cc1	/	/	-9	0.4	/
Cc1ccccc1CNS(=O)(=O)c1c(C(=O)N2CCCCC2)c(C)n(C)c1C	/	/	4	1.5	/
COc1ccc(/C=C2\N=C(SC)N(C)C2=O)cc1	-13%	-30	/	-3.5	-3
CCCNc1ncnc2c1cnn2-c1ccc(OC)cc1	/	-2	/	/	-11
CCCc1nc(N2CCN(C)CC2)c2sc(=S)n(-c3ccccc3)c2n1	1%	-10	1	1.1	-6	Arbovirus anti repeat=7
c1ccc(NCc2nc(-c3ccccc3)no2)cc1	4%	-13	3	-3.2	-11
Cc1ccc(OCc2cc(C(=O)Nc3ccccc3)oc2C)cc1	17%	4	1	/	1
COc1ccccc1OCc1cc(C(=O)N2CC3C[C@@H]4CC2C[C@H](C3)C4)no1	/	/	0	1.7	/
Cc1nc(N)nc(N/N=C/c2c(F)cccc2Cl)n1	/	/	0	-2.6	/
CN1C(=O)N(C)C2(CC1(C)C)CC(C)(C)N(C)C(=O)N2C	-1%	-25	-3	-2.4	7
O=C(CCN1C(=O)c2ccccc2C1=O)Nc1ccc(-c2cn3ccsc3n2)cc1	-4%	-37	?	-6.3	4
CCCCN(C(=O)c1ccc(S(=O)(=O)N(C)C)cc1)c1ccccc1	3%	/	-5	4.6	/
COc1ccc(CC(=O)NCc2nnc(SCC(=O)Nc3cccc(F)c3)n2C)cc1	3%	/	-9	0.7	2
NS(=O)(=O)c1ccc(CCNC(=O)c2ccc(OCC3CCCO3)cc2)cc1 (stereo not drawn)	/	/	3	-6.6	/
Cc1ccc(CN2CCN(CC(=O)O)C2=O)cc1	-8%	/	-3	-2.3	3
C=CCN(CC(=O)NC1CCCC1)C(=O)C(=O)Nc1ccc2c(c1)OCCO2	/	/	1	1.0	/
O=C1CC2(CCCCC2)Oc2ccc(F)cc21	-11%	/	6	3.5	/
COc1ccccc1NC(=O)O/N=C(\N)c1ccccc1	11%	/	-3	-0.4	/
COc1ccccc1NC(=O)c1ccccc1NC(=O)c1cc(Cl)ccc1NC(=O)c1ccco1	2%	-37	1	3.5	3
COc1cc(CC(=O)N(C)CC(=O)Nc2cc(C)ccc2C)cc(OC)c1OC	/	/	5	0.7	/
COc1ccccc1OCC(=O)Nc1c2c(nn1-c1ccc(C)cc1)CS(=O)(=O)C2	/	/	-9	-4.1	/
O=C(Cc1ccc2c(c1)OCCO2)N1CCN(S(=O)(=O)c2cccc(Cl)c2Cl)CC1	-6%	17	-1	7.3	12
COc1ccccc1Nc1nc(NCCO)nc(N2CCCC2)n1	-3%	/	12	-5.1	/
Cc1ccc2nc(CSc3nnc4ccccn34)cc(=O)n2c1	-3%	/	-4	-0.1	23
Cc1ccc2oc(C(=O)N3CCN(C)C[C@@H]3C(C)C)c(C)c2c1	/	/	3	-4.3	/
COc1cc(/C=C(/C#N)c2ccc(F)cc2)ccc1Oc1ccc([N+](=O)[O-])cn1	14%	-27	12	0.8	4
Cc1ccccc1CN1CCC(CNC(=O)C2CCCN(c3ncnc4c3nc3n4CCCCC3)C2)CC1 (stereo not drawn)	/	/	-9	3.0	/
Cc1cccc(C(=O)Nc2nnc(Cc3c[nH]c4ccccc34)s2)c1	?	-45	5	5.8	-13
CCN(CCCNC(=O)CN(C)S(=O)(=O)c1cccc2nsnc12)c1ccccc1	/	-40	-10	0.4	-8
COC(=O)c1cc(O)cc(OC)c1Oc1cc(C)cc(O)c1C(=O)O	-2%	/	3	/	/
Cc1ccc(C(=O)N2CCCC2)cc1Br	-9%	-15	0	0.6	2
O=[N+]([O-])c1cc(S(=O)(=O)N2CCCC2)ccc1NCCCN1CCOCC1	-2%	/	-7	1.0	8
CN=C1S/C(=C\c2ccc(SC)cc2)C(=O)N1C	/	/	4	5.5	/
COc1ccc(OC)c2[nH]c(=O)c(CCNC(=O)c3cc4ccccc4o3)cc12	8%	-26	-8	-1.5	1	Arbovirus anti repeat=1
CCOc1ccc(-n2c(Cc3cc(=O)[nH]c(=O)[nH]3)nnc2SCc2cccnc2)cc1	/	-26	-2	-2.0	3	Arbovirus anti repeat=7
Cc1ccc(NC(=O)CN2CCc3cc4c(cc3C2)OCCCO4)cc1	/	/	-2	-0.2	/
O=C(NCc1ccco1)c1ccc(=O)oc1	-2%	-28	-16	0.3	2
S=c1[nH]nc(-c2ccncc2)n1/N=C/C(Cl)=C\c1ccccc1	6%	/	29	/	18
COc1ccc(CCCNC(=O)C2CCC(=O)N(CCc3cccc(F)c3)C2)cc1 (stereo not drawn)	/	/	9	0.0	/
N#CCC(=O)Nc1ccc(C(=O)N2CCN(S(=O)(=O)c3ccc4ccccc4c3)CC2)cc1	/	/	1	2.8	/
CC1CCN(CCC(=O)NN)CC1	1%	/	-4	0.2	3
CCOC(=O)C1CCN(C(=O)c2c(C)oc3c2C(=O)c2ccccc2C3=O)CC1	11%	43	7	69*	-33
COc1cccc(NC(=O)C2CC(=O)OC23CCOC(C)(C)C3)c1 (stereo not drawn)	-8%	-19	1	0.1	1
Cc1nnc(NC(=O)Oc2ccccc2)s1	-9%	-27	4	2.4	4
CCOC(=O)C1CCCN(S(=O)(=O)c2cccs2)C1 (stereo not drawn)	-7%	6	-5	2.1	10
Cc1ccc(NC(=O)CN2C(=O)S/C(=C/c3ccc(O)c([N+](=O)[O-])c3)C2=O)cc1C	-3%	/	/	/	-5
CNC(=O)N(O)C1N(NC(=O)Nc2ccccc2)C(=S)SC1(C)C (stereo not drawn)	/	-13	-7	-6.7	/
Cc1cccc(N(C(=O)CNC(=O)c2cccs2)C(C(=O)NC2CCCC2)c2cccnc2)c1 (stereo not drawn)	0%	-9	4	0.1	4
COc1ccccc1OCC(=O)Nc1ccc(C(N)=O)cc1	-4%	-23	-1	-2.0	6
CCOC(=O)CSc1ncccn1	-8%	/	0	0.1	3
Cc1cc(=O)oc2cc(OC(C)C(=O)N3CCOCC3)ccc12 (stereo not drawn)	-4%	-25	-7	2.0	1
Cc1cc(NNC(=O)Nc2cccc(Cl)c2)nc2c1c(C)nn2C	0%	/	-19	-1.3	/

At a glance, some entries already given.
SMILES	Mtb growth	YopH inh	Mtb bLac sens	RecA splice inh	Arbovirus anti	others
CN=C1S/C(=C\c2ccc(SC)cc2)C(=O)N1C	/	/	4	5.5	/
COc1ccc(OC)c2[nH]c(=O)c(CCNC(=O)c3cc4ccccc4o3)cc12	8%	-26	-8	-1.5	1	Arbovirus anti repeat=1

Returning to the listing with the two entries that preceded the break.
SMILES	Mtb growth	YopH inh	Mtb bLac sens	RecA splice inh	Arbovirus anti	others
Cc1cc(=O)oc2cc(OC(C)C(=O)N3CCOCC3)ccc12 (stereo not drawn)	-4%	-25	-7	2.0	1
Cc1cc(NNC(=O)Nc2cccc(Cl)c2)nc2c1c(C)nn2C	0%	/	-19	-1.3	/
CC(=O)N1CCC(N(CCN2CCOCC2)C(=S)Nc2ccc(C)cc2C)CC1	-2%	/	-6	0.5	-2
COc1cccc(NC(=O)C/C(C)=N/NC(=O)c2ccccc2Cl)c1	-2%	/	53	1.0	/
COC(=O)[C@]1(CC(C)C)N[C@H](c2ccc(SC3CCCCC3)c(OC)c2)[C@@H]2C(=O)N(C)C(=O)[C@@H]21	/	/	5	5.6	/
N#CCCN1CCN(S(=O)(=O)c2ccc(C#N)cc2)CC1	5%	-34	6	1.3	3
c1ccc(-n2nnc3ccccc32)cc1	/	/	0	-0.2	/
COc1ccc(CCNc2c([N+](=O)[O-])ncn2C)cc1OC	-9%	/	-2	2.2	/
COCCCNC(=S)NC(=O)c1ccccc1	6%	-17	-1	-0.3	3
COc1cc(OC)cc(C(=O)Nc2ccccc2C(=O)N2CCCC2)c1	-6%	-3	-2	-3.2	6
O=C(/C=C/c1ccc(OCCCF)cc1)NCc1cccc(Cl)c1	4%	-37	-13	-3.0	-4
CN1CCN(C(=O)c2ccc3c(c2)N(Cc2cccc(Cl)c2)C(=O)c2ccccc2S3(=O)=O)CC1	/	/	3	-1.8	/
O=C(CN1CCN(C(=O)C2CCCO2)CC1)Nc1cc(Cl)ccc1Cl (stereo not drawn)	/	/	-13	0.1	/
C=CCn1c(=O)c2ccccc2n2c(SCC(=O)NCC)nnc12	/	/	2	-0.7	/
NC(=O)CN1CCOCCOCCOCCOCCOCC1	1%	-5	3	-2.0	6
Cc1ccc(S(=O)(=O)Nc2nc(C)c(C(=O)NNS(=O)(=O)c3ccccc3)s2)cc1	3%	/	12	0.2	/
CC(C)NC(=S)N1CCN(S(C)(=O)=O)CC1	-1%	-25	3	-1.2	6
Cc1cnc(C(=O)OCC(=O)NC2CCCC(C)C2C)cn1 (stereo not drawn)	-4%	-18	4	-0.6	10
COc1ccc(NC(=O)CN(C)CC(=O)NCC(=O)Nc2ccc(F)cc2)cc1	/	/	-15	5.4	/
O=C(CCCc1ccccc1)NC1CCSC1=O (stereo not drawn)	-9%	-10	1	0.2	12
O=C(Nc1ccccc1)Nc1cccc(-c2nnco2)c1	/	/	-4	9.1	/
CCOc1cc(C2/C(=C(\O)c3cc(C)ccc3C)C(=O)C(=O)N2CCN(C)C)ccc1O (stereo not drawn)	-3%	-44	0	-2.0	2
CCc1cccc(CC)c1NC(=O)CSc1nnc(C2CC2)n1C	/	/	-2	-0.6	/
NS(=O)(=O)c1ccc(NC(=O)COC(=O)Cc2ccc(Cl)cc2)cc1	-4%	/	-4	-1.5	/
O=c1[nH]c(NCCO)nc2c1C1(CCCC1)Cc1ccccc1-2	-5%	-7	-1	-0.5	-1
CCC1CCCCN1C(=O)c1noc(C(C)C)c1[N+](=O)[O-] (stereo not drawn)	4%	-6	1	-3.5	-1
COC(=O)c1sc(-c2ccc(C(C)(C)C)cc2)cc1NC(=O)c1ccccc1C(=O)O	6%	/	59	28	/
Cc1ccc(NC(=S)/C(=C(\[O-])c2ccc(C)c([N+](=O)[O-])c2)[n+]2ccccc2)cc1C	1%	-1	-5	8.1	12
C=CCN(C(=O)c1cccc(C(F)(F)F)c1)C1(C(=O)Nc2ccccc2)CCN(C(C)C)CC1	5%	/	-13	1.5	-3
COC(=O)C1=C(C)C(c2ccc(OC)cc2OC)NC(=O)N1 (stereo not drawn)	-9%	-9	-11	-0.2	6
Cc1cccc(NC(=O)CSc2nc3nc(C)cc(C)n3n2)c1	/	/	-4	0.1	/
COc1ccccc1NS(=O)(=O)c1cccc(NC(=O)Nc2ccc(Cl)cc2)c1	7%	/	-10	-0.3	-19
Cc1cc(OC(C)C(=O)N/N=C/CC(C)c2ccccc2)ccc1Cl (stereo not drawn)	-9%	0	-5	3.1	-10
O=C(Nc1ccc2c(c1)OCCO2)C1CCCN(c2ncccn2)C1 (stereo not drawn)	-1%	-33	-1	-0.7	-1
O=C(N/C=C/c1ccccc1)Nc1ccc(Cl)cc1	7%	-44	95	6.0	-2
CC(C)(C)C(C(=O)O)N1CCS(=O)(=O)CC1 (stereo not drawn)	4%	/	-1	1.0	14
COCC(C)N1CCC(n2nccc2NC(=O)c2ccccc2Cl)CC1 (stereo not drawn)	/	/	-6	11	/
CCN1CCN(C(=S)Nc2ccsc2C(=O)OC)CC1	2%	/	-5	-1.3	-5
Nc1ccccc1C(=O)N1CCC(O)(c2ccc(Cl)cc2)CC1	/	/	0	-1.2	/
O=C(Oc1c(-c2ccccc2)c(=O)n2c3c(cccc13)CC2)c1ccc(Cl)cc1	4%	/	71	-0.3	/
O=C(NC(=S)NNS(=O)(=O)c1ccc(Cl)cc1)c1cccnc1	-7%	/	3	5.0	-1
CCNCc1ccc(OCc2cccs2)c(OCC)c1	0%	/	-1	-1.7	8
CCOC(=O)N1CCC(NC(=O)CSCc2nc(-c3ccc(C)cc3)oc2C)CC1	/	/	5	-0.6	/
CC1C2Cn3c(nc4ccccc43)C1N(C(C)C)O2 (stereo not drawn)	2%	/	-9	-0.4	/

These rows are one share of the data (hit frequency here may not be typical).
